HPGD inh – HPGD (human) dehydrogenase inhibition. P15428. purified HPGD, NADH fluorescence kinetic, PGE2 substrate. Potency, µM, for inactives: at the top dose activity change, negative = inhibition, most hits filed as inhibitors. actives 4.3% (n = 150,000); active = well fitted inhibition curve with a large enough effect (not every such curve was filed as active); inconclusive = small, poorly fitted or top-dose-only effect, or another doubt; inactive = no such curve, though single readings can be large or run the other way;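 also: top concentration of the series not given in the record; plate controls included wells without enzyme; inactives centre near -10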
Target sequence (P15428 whole entry, looked up): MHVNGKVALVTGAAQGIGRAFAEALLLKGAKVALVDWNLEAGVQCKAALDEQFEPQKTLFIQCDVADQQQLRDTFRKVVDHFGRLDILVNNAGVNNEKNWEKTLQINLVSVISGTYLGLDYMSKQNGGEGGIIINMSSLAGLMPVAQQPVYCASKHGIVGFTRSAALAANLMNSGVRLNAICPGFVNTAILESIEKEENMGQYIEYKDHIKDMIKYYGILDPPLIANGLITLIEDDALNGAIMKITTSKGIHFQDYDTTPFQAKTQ
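NADH formation kinetics: reaction with 30 uM PGE2 and 1 mM NAD+ (final), 20 nM enzyme, Tris-HCl pH 8 with Tween 20, after 15 min compound preincubation at room temperature. Fluorescence change, last versus first of five reads.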
Starred values were filed as active, the others as inactive; ? = inconclusive; & = joins results of further samples. % is scaled to controls: 0 for no effect and ±100 for the full control effect; potency is read from the fitted curve at half-maximal effect. Only part of the results is shown, so the mix of outcomes need not match the whole.

Structure | HPGD inh
COc1cccc(NC(=O)c2ccn(C)n2)c1 | -13%
CCCCNC(=O)OCCNC(=O)Oc1cccc(C)c1 | -10%
CCCNC(=O)Cc1cc(=O)[nH]c(=O)[nH]1 | 0%
Cc1cccc(C)c1NC(=O)C1CC(=O)N(C(C)C)C1 (configuration not stated) | -1%
O=C(c1ccc(Cl)cc1)c1cnc(-c2ccc(Cl)cc2)s1 | -7%
CN(c1ccc(OCC(=O)OCC(=O)Nc2ccc(Br)cc2)cc1)S(=O)(=O)c1cccs1 | -9%
Clc1ncc(CN2CCN(Cc3ccccc3)CC2)s1 | 5%
OC[C@@H]1O[C@@H](n2cnc3c(NC4CCCC4)ncnc32)[C@H](O)[C@H]1O | -7%
CSCC[C@H](Nc1ncnc2sc(C)c(C)c12)C(=O)O | ?
CC1(C(=O)O)CCC(C(=O)Nc2ccc3ccccc3c2)C1(C)C (configuration not stated) | -12%
CC(C(=O)NCC1CCCCC1)N1CCN(S(=O)(=O)/C=C/c2ccccc2)CC1 (configuration not stated) | -1%
CSc1nc(C2CC2)cc(-c2cccs2)c1C#N | ?
CC(=O)/C(=C/N(C)C)Sc1ccc(C)cc1 | -6%
CC(=O)Nc1ccc(S(=O)(=O)Nc2nc3ccccc3nc2N2CCCCCC2)cc1 | -11%
CCOC(=O)c1cnn(-c2ncnc3sc(CC)cc23)c1N | -22%

Structure | HPGD inh
O=C(CSc1nnc(NC(=O)CN2CCOCC2)s1)Nc1ccccc1 | -12%
CCOc1ccc(/C=N/n2cnnc2)cc1 | -4%
CCOC(=O)COc1ccc(/C=C2\NC(=S)N(CC)C2=O)cc1 | -20%
O=C(Cc1csc(N2CCOCC2)n1)N/N=C/c1cccc(O)c1 | -10%
Cc1ccc2oc(=O)c3cnn(CC(=O)N(CCC(C)C)Cc4ccco4)c3c2c1 | -7%
CCOC(=O)C1CCCN(C(=O)c2ccc(OC)c([N+](=O)[O-])c2)C1 (configuration not stated) | -5%
CCn1cc(C(=O)OCC(=O)c2cc(C)n(-c3cccc(C(F)(F)F)c3)c2C)c(=O)c2ccc(C)nc21 | -28%
COC(=O)c1[nH]c2cccc(OC)c2c1NC(=O)CN1CCN(c2cccc(OC)c2)C(C)C1 (configuration not stated) | ?
NC(=O)c1cnn2c1NC(c1ccc(F)cc1)CC2C(F)(F)F (configuration not stated) | 2%
CCCOc1ccc(/C(O)=C2/C(=O)C(=O)N(CCCN3CCOCC3)C2c2ccncc2)cc1 (configuration not stated) | ?
COc1cc(NC(=O)CSc2nc3[nH]ncc3c(=O)n2-c2ccccc2C)cc(OC)c1OC | -8%
CCn1c(=N)n(CC(=O)C23CC4CC(CC(C4)C2)C3)c2ccccc21 | ?
Cc1cc(C)nc(NC(=O)c2cc3ccccc3o2)n1 | -6%
N#CC1=C(N)Oc2n[nH]c(-c3ccccc3)c2C1c1ccsc1 (configuration not stated) | -25%
CCC(=O)N(Cc1cc(=O)[nH]c2ccccc12)c1cccc(C)c1 | ?

No new results follow: entries from further up.
Structure | HPGD inh
COc1cc(NC(=O)CSc2nc3[nH]ncc3c(=O)n2-c2ccccc2C)cc(OC)c1OC | -8%
CCn1c(=N)n(CC(=O)C23CC4CC(CC(C4)C2)C3)c2ccccc21 | ?
Cc1cc(C)nc(NC(=O)c2cc3ccccc3o2)n1 | -6%
N#CC1=C(N)Oc2n[nH]c(-c3ccccc3)c2C1c1ccsc1 (configuration not stated) | -25%
CCC(=O)N(Cc1cc(=O)[nH]c2ccccc12)c1cccc(C)c1 | ?

Later entries:
Structure | HPGD inh
CCCSc1nc2c(cnn2-c2ccc(Cl)cc2)c(=O)[nH]1 | -14%
CC(C)c1nc(SCC(=O)N2CCN(c3ccccc3)CC2)c2c(=O)n(C)c(=O)n(C)c2n1 | -7%
c1coc(CNCC2OCCc3ccccc32)c1 (configuration not stated) | -7%
COc1ccc(NC(C)=O)cc1NC(C)C(=O)Nc1ccc(F)c(F)c1F (configuration not stated) | -6%
Cc1nc2nc(Cc3ccccc3)[nH]n2c(=O)c1Cl | -12%
Cc1cc2c3c(cccc3n1)C(=O)c1ccccc1-2 | -3%
Cc1ccc(Cl)cc1N1CCN(CC(=O)Nc2ccc3[nH]c(=O)[nH]c3c2)CC1 | -7%
Cc1c(C(=O)NCc2cccs2)oc2ccc(Br)cc12 | -7%
CCn1c(/C=C/c2cccc([N+](=O)[O-])c2)nc2ccccc2c1=O | -6%
CCCCOC1(c2ccccc2)OC(=O)c2ccccc21 (configuration not stated) | -3%
CCOc1cc(/C=N/NC(=O)COc2nc(C)cc(COC)c2C#N)ccc1O | -15%
COc1ccccc1C(=O)O/N=C(\N)c1ccc(Cl)cc1 | -20%
O=C(c1ccc(Cl)cc1)N1CCC(O)(CSc2ccccc2)CC1 | -3%
C/C(=C1/SC(=S)N(CCC(=O)O)C1=O)c1ccc(O)cc1 | 18µM*
c1cc2c3c(cccc3c1)C(N1CCCCCC1)=N2 | ?

Structure | HPGD inh
C=CCn1c(SCC(=O)OCc2ccccc2)nc2c1c(=O)n(C)c(=O)n2C | -17%
COC(=O)CCCC1=CC2=C(c3ccccc3)C(=O)C(C)(OC(=O)C3CCCC3)C(=O)C2=CN1C1CCCC1 (configuration not stated) | -3%
CCOC(=O)CSc1nc2sc3c(c2c(=O)n1CC)CC(C)(C)OC3 | -10%
COc1ccc(C(O)c2nc3ccccc3n2C)cc1OC (configuration not stated) | -7%
CCOC(=O)CSc1nnc(CNC(=O)Cc2ccccc2)n1C | -13%
COc1ccc(COC(=O)C2=C(C)NC(=O)NC2c2ccc(O)c(OC)c2)cc1 (configuration not stated) | -6%
CCCn1c(C)nc2c(NC(C)CCCN(CC)CC)nc(C)nc21 (configuration not stated) | -12%
CC(=O)c1c(C)nc(-c2ccc(Cl)cc2Cl)n1O | -16%
Cc1cc(N2CCC(C)CC2)nc2ccc(N3C(=O)CCC3=O)cc12 | ?
O=C(NCc1ccco1)c1nnc(Cc2ccc(Cl)cc2)o1 | -20%
CCOC(=O)N1CCN(c2c(NCCN(C)Cc3ccccc3)c(=O)c2=O)CC1 | -28%
COc1cccc(/C=N/NC(N)=S)c1OCc1cccc(Cl)c1 | -22%
O=C(O)/C=C/C(=O)Nc1ccc(Oc2ccc(NC(=O)/C=C/C(=O)O)cc2)cc1 | -8%
O=C(Cc1c(F)cccc1Cl)c1ccc(O)cc1O | -22%
CCOCCCN(Cc1cc2cc(C)cc(C)c2[nH]c1=O)C(=O)N(CC)CC | -11%

Structure | HPGD inh
COc1ccccc1/C=N/NC(=O)CC(=O)NCc1cccnc1 | -10%
CC(=O)Nc1cccc(/C(C)=N/NC(=O)c2ccccc2Cl)c1 | -6%
O=C(CN1N=C(c2ccc(Cl)cc2)CCC1=O)NCCN1CCc2ccccc2C1 | -11%
CCn1c(O)c(N=NC2=NC(=O)CS2)c2cc(C)ccc21 | ?
Cn1c(=O)c2c(nc(CN3CCN(c4ccccc4)CC3)n2Cc2c(F)cccc2Cl)n(C)c1=O | -11%
COc1ccccc1N(CC(N)=O)S(=O)(=O)c1ccc(C)cc1 | -3%
COc1cccc(C(=O)N2CCN(C3CCC(c4ccccc4)CC3)CC2)c1OC (configuration not stated) | -1%
O=C(OCCN1CCCCC1)c1cc2ccccc2o1 | -16%
Cc1noc(C)c1C(=O)NCc1ccccc1 | -14%
Cn1c(SCC(=O)N/N=C/c2ccc([N+](=O)[O-])s2)nnc1-c1ccccc1 | -10%
COc1cc(CNCCSc2nnnn2C)cc(Br)c1OCc1ccccc1F | -7%
O=C(NCCc1ccccn1)C(F)(F)C(F)(F)C(F)(F)C(F)(F)C(F)(F)C(F)(F)C(F)(F)C(F)F | -24%
O=C(Nc1ccc(N2CCN(C(=O)c3ccco3)CC2)cc1)c1cccs1 | -12%
COc1ccc(CC(=O)N2CC3(C)CC2CC(C)(C)C3)cc1 (configuration not stated) | -30%
CCCOc1ccc(/C(O)=C2/C(=O)C(=O)N(c3cc(C)on3)C2c2ccc(C(=O)OC)cc2)cc1 (configuration not stated) | -7%

Structure | HPGD inh
CC(N)=NCCCC[C@H](N)C(=O)O | -5%
Cc1cc(OCC(=O)Nc2ccncc2)c(C)cc1Br | -12%
CCCCN(CC)S(=O)(=O)N1CCC(C(=O)NCCCN2CCOCC2)CC1 | ?
C[C@@H](C(=O)NCc1ccccc1)[C@@H]1C[C@@]1(C)[C@@H](NC(=O)OCc1ccccc1)c1ccccc1 | -13%&-10%
C[C@@H](C(=O)O)c1cccc(C(=O)c2ccccc2)c1 | -7%
CC(=O)Nc1ccc(C(=O)N(C)C(C(=O)Nc2ccc(C)cc2)c2ccccn2)cc1 (configuration not stated) | -14%
O=C1c2cccc3cc(Br)cc(c23)C(=O)N1Nc1ccc(Br)cc1 | -3%
CCn1c(SCC(=O)Nc2cc(C)on2)nnc1-c1ccco1 | -6%
O=c1c2c(nc3cc(-c4cccc(Cl)c4)[nH]n13)CCC2 | ?
Cc1ccc(NP(=O)(c2ccc(N(C)C)cc2NC(=O)c2cccs2)N2CCOCC2)cc1 (configuration not stated) | -21%
COc1ccc(/C=C(\C#N)C(=O)NCCCn2ccnc2)cc1 | -18%
Cc1cc(C)c2c(c1)cc(C)c1nnc(SCC(=O)Nc3cc(C)on3)n12 | -13%
Cc1cc(NC(=O)CN2CC3CC(C2)c2cccc(=O)n2C3)nc2c1c(=O)oc1ccccc12 (configuration not stated) | 0%
CCOC(=O)N1CCC(NC(=O)Cn2cc3c(n2)CCCCC3)CC1 | -3%
CC(C)(C)C(=O)Nc1nnc(-c2ccncc2)o1 | -23%

Structure | HPGD inh
COC(=O)c1sc2nc(C)c([N+](=O)[O-])c(C)c2c1N | -13%
C=CCCCCCCCCCCCC(O)CC(O)CO (configuration not stated) (tested in a mixture with another compound) | -2%
COc1ccc(S(=O)(=O)N2CCN(C(=O)c3c(C)nn(-c4ccccc4)c3Cl)CC2)cc1 | -16%
CC1CCCCN1C(=O)CSc1nnc(Cc2ccccc2)n1C (configuration not stated) | -14%
COCC(=O)NCCc1ccc(S(N)(=O)=O)cc1 | -5%
CC(=O)N1CCN(c2nc(CC(C)C)c3c(c2C#N)CCC3)CC1 | ?
CC(C)c1ccc(N2C(=O)CSC23C(=O)N2CCCc4cccc3c42)cc1 (configuration not stated) | -11%
Cc1ccc(S(=O)(=O)Oc2ccccc2N2C(=O)C3CC=CCC3C2=O)cc1 (configuration not stated) | -5%
CCCCCCC1CC(/C(C)=N\NC(N)=O)OC1=O (configuration not stated) | -3%
CCOC(=O)N1CCN(C(=O)CSc2nc3ccccc3c(=O)n2-c2ccccc2)CC1 | -11%
O=C1c2ccccc2C(=O)c2c(NCc3cccnc3)cccc21 | -17%
COc1cc(C2NC(=O)NC(C)=C2C(=O)OC2CCCCC2)cc(Br)c1O (configuration not stated) | -10%
COc1cc(-c2ccc(N=Nc3ccc4c(S(=O)(=O)O)cc(S(=O)(=O)O)c(N)c4c3O)c(OC)c2)ccc1N=Nc1ccc2c(S(=O)(=O)O)cc(S(=O)(=O)O)c(N)c2c1O | 14µM*
O=C(NCCc1ccc2c(c1)OCCO2)c1ccc(F)cc1 | -26%
COc1ccc(OCc2cn3c(C)cc(C)nc3n2)cc1 | -8%

Structure | HPGD inh
Cc1ccc(CSCCNC(=O)CSCc2ccc([N+](=O)[O-])cc2)cc1 | -1%
Cc1ccc(-c2nc(-c3ccccc3)no2)cc1 | -5%
CCOC(=O)CNC(=O)CSc1ncnc2c1cnn2-c1ccc(C)cc1 | -18%
O=C(NCCc1c[nH]c2ccccc12)[C@@H]1C[C@H]1[C@@H](NP(=O)(c1ccccc1)c1ccccc1)c1ccccc1 | -28%&-5%
CCOC(=O)c1nnc(-c2cccs2)nc1NC(C)C | -5%
CCOC(=O)C1=C(CC)Nc2ccccc2N=C1NC(=O)Nc1ccc(Cl)c(Cl)c1 | -7%
FC(F)(F)c1nc2nc(Cl)c(Cl)nc2n1CCCN1CCOCC1 | ?
CCCc1cc(=O)oc2c(CN3CCCC3)c(O)ccc12 | ?
CC(=O)c1cccc(NC(=S)NC2CCCCC2)c1 | -10%
CCOc1ccc(S(=O)(=O)NN)cc1 | -1%
Cc1cc(Cl)ccc1OCC(=O)Nc1ccccc1CO | -4%
S=C(NCc1cccs1)Nc1ccccc1 | 13µM*
N#C/C=C1/NC(=O)c2ccccc2S1 | 2.2µM*
COCCNC(=O)c1cc(-c2ccc(OC)c(OC)c2)on1 | -20%
Cn1c2ccccc2c2c(C(=O)NCCCN3CCCC3=O)cn(C3CCCCC3)c(=O)c21 | ?

A few values from the list.
HPGD inh result of CCOc1ccc(S(=O)(=O)NN)cc1 : -1%
HPGD inh result of Cc1ccc(CSCCNC(=O)CSCc2ccc([N+](=O)[O-])cc2)cc1 : -1%

Next part:
Structure | HPGD inh
Cc1ccc2[nH]cc(C(=O)CN3CCN(C)CC3)c2c1 | 0%
COc1ccc(Nc2nc(N)nc(CSc3nncn3C)n2)cc1 | -4%
Cc1ccc(C(=O)CSc2nc(C)cc(C)c2C(N)=O)cc1 | -2%
O=C(CCn1nc(-c2ccc(Cl)cc2)ccc1=O)N1CCOCC1 | -11%
COc1ccc(N(C(C)=O)S(=O)(=O)c2cccc3cccnc23)cc1 | -1%
